# Screening results deposited in PubChem by Vanderbilt University.
# GIRK2 activ = GIRK2 channel activation. HEK293-GIRK2 thallium flux, Thallos fluorescence. calls only for hits at 25 µM. 0.05% of 63,000 active. AID 1259325;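 active = among the strongest 0.2% of first-round signals and kept after retests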;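 note: first round at about 10 µM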
# Target sequence (P48051 whole entry, looked up): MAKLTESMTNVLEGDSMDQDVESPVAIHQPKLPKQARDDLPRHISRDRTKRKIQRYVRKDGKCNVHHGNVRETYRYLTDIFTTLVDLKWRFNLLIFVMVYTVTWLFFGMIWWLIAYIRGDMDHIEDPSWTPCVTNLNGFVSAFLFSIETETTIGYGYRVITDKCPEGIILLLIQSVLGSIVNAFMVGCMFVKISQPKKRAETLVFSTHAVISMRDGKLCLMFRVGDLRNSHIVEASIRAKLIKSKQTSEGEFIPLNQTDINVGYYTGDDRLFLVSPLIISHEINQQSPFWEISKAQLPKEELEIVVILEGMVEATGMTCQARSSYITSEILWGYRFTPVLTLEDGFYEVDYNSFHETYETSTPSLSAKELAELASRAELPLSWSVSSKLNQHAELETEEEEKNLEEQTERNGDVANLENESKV
# Calls only; i = inactive.
SMILES,GIRK2 activ
COc1ccc2c(c1)c(CC(=O)NCCOC(=O)CCC(=O)O[C@@H]1c3cc4c(cc3[C@H](c3cc(OC)c(OC)c(OC)c3)[C@@H]3C(=O)OCC13)OCO4)c(C)n2C(=O)c1ccc(Cl)cc1 (some centres undefined),i
CN[C@@H]1C[C@@H](c2ccc(Cl)c(Cl)c2)c2ccccc21,i
COc1ccc2c(c1)[C@]13CCCC[C@@H]1[C@H](C2)N(C)CC3,i
CCCCC/C=C\C/C=C\C/C=C\C/C=C\CCCC(=O)NCC(=O)O,i
CN(C)CC1COCCN1C(=O)Cc1ccccc1 (centres undefined),i
CN(C)CCN(C(=O)COc1ccccc1)c1nc2ccc(S(C)(=O)=O)cc2s1,i
CC(C)N(CC#CCNS(C)(=O)=O)C(C)C,i
O=C(NCC#CCN1CCOCC1)c1ccsc1,i
Cc1cc(C(=O)N2CC3CC(C2)c2cccc(=O)n2C3)c(C)o1 (centres undefined),i
NC(=S)Nc1ccccc1,i
Cc1cccc(CC(=O)N2CCN(CC(O)c3cccs3)CC2)c1 (centres undefined),i
NC(=O)CS(=O)C(c1ccccc1)c1ccccc1 (centres undefined),i
Cc1ccccc1-n1nncc1CN1CCN(C(=O)Cc2cccc(F)c2)CC1,i
Cc1ccc(S(=O)(=O)NC(=O)N2CC3CC(C2)c2cccc(=O)n2C3)cc1 (centres undefined),i
CCCCCCC(=O)O[C@H]1CC[C@H]2[C@@H]3C[C@@H](O)C4=CC(=O)CC[C@]4(C)[C@H]3CC[C@]12C,i

# Next part (6 carried over from the part before).
SMILES,GIRK2 activ
NC(=S)Nc1ccccc1,i
Cc1cccc(CC(=O)N2CCN(CC(O)c3cccs3)CC2)c1 (centres undefined),i
NC(=O)CS(=O)C(c1ccccc1)c1ccccc1 (centres undefined),i
Cc1ccccc1-n1nncc1CN1CCN(C(=O)Cc2cccc(F)c2)CC1,i
Cc1ccc(S(=O)(=O)NC(=O)N2CC3CC(C2)c2cccc(=O)n2C3)cc1 (centres undefined),i
CCCCCCC(=O)O[C@H]1CC[C@H]2[C@@H]3C[C@@H](O)C4=CC(=O)CC[C@]4(C)[C@H]3CC[C@]12C,i
NCCCN1CCN(c2ccccc2)CC1,i
CCCCC/C=C\C/C=C\C/C=C\C/C=C\CCCC(=O)Nc1ccc([N+](=O)[O-])cc1,i
C=C(C)[C@H]1CNC(C(=O)O)[C@H]1CC(=O)O (some centres undefined),i
COc1ccc(CC(=O)N2CCN(Cc3nc(-c4ccc(Cl)cc4)cs3)CC2)cc1OC,i
COc1ccc(-c2csc(CN3CCN(C(=O)Cc4cccs4)CC3)n2)cc1,i
O=C(NCCCN1CCOCC1)c1cc2cccnc2n(Cc2ccc(F)cc2)c1=O,i
COc1ccc(-n2c(C)nc3ccc(NC(=O)CC4CCCC4)cc3c2=O)cc1,i
CC1=C[C@H]2O[C@@H]3C[C@H]4OC(=O)/C=C\C/C=C5/OCC[C@@]6(O[C@@H]6C(=O)OC[C@@]2(CC1)[C@]4(C)[C@]31CO1)[C@@H]5O,i
CC(C)(C)CC(=O)NC1CNC(=O)C1 (centres undefined),i
NC(=O)OCCCc1ccccc1,i
CN(C)C(=O)Oc1cccc(NS(=O)(=O)N(C)C)c1,i
CCCCCCCCCCCCCCCC(=O)OC[C@H](COP(=O)([O-])OCC[N+](C)(C)C)OC(=O)CCCC=O,i
COc1ccccc1OCC(=O)N1CCN(Cc2nc(C)cs2)CC1,i
COc1cc(N)c(Cl)cc1C(=O)NC1CN2CCC1CC2 (centres undefined),i
Cc1ccccc1CC(=O)N1CCN(Cc2nncn2C2CCCCC2)CC1,i
COc1ccccc1OCC(=O)N1CCN(CC(F)(F)F)CC1,i
Cc1ccc(NC(=O)c2nn(C)c3ccccc23)c(Br)c1,i
CN=C(NS(=O)(=O)c1ccc(Cl)cc1)N1C[C@H](c2ccccc2)C(c2ccc(Cl)cc2)=N1,i
CC(=O)c1ccc(NC(=O)c2nn(C)c3ccccc23)cc1,i
Cc1ccc(C)c(Cn2cccc(C(=O)Nc3cccc(C)n3)c2=O)c1,i
CC(C)Sc1ccc(CC(=O)N2CCN(Cc3nc4ccccc4[nH]3)CC2)cc1,i
CC(C)N(CC#CCNC(=O)c1ccco1)C(C)C,i
Cc1ccc(NC(=O)NCC#CCN(C)C)cc1C,i
Oc1ccc2c3c1O[C@H]1c4[nH]c5ccccc5c4C[C@@]4(O)C(C2)N(CC2CC2)CC[C@]314,i
COc1ccc(-c2cc3ccc(OC(=O)N(C)C)cc3oc2=O)c(OC)c1,i
O=C(Nc1ccc2c(c1)OCCO2)c1cc2cccnc2n(Cc2ccccc2)c1=O,i
CN(CCO)CC1COCCN1C(=O)Cc1ccccc1 (centres undefined),i
CCOC(=O)c1c(-c2ccc(OC)cc2)oc2ccc(OC(=O)N(C)C)cc12,i
Cc1ccc(-n2c(C)nc3ccc(NC(=O)C4CC4)cc3c2=O)cc1,i
Cc1csc(CN2CCN(C(=O)Cc3ccc(Cl)cc3)CC2)n1,i
CCCCC/C=C\C/C=C\C/C=C\C/C=C\CCCC(=O)NC,i
COc1ccccc1OCC(=O)N1CCN(CCn2ccnc2-c2ccccc2)CC1,i
O=C(c1cccs1)N1CC2CC(C1)c1cccc(=O)n1C2 (centres undefined),i
CSc1cccc2sc(N(CCN3CCOCC3)C(=O)Cc3ccc(F)cc3)nc12,i
COc1cc(O)c2c(c1)CCC[C@@H](O)[C@H](O)C(=O)C=CC[C@H](C)OC2=O,i
COc1cccc2cc(C(=O)N3CC4CC(C3)c3cccc(=O)n3C4)c(=O)oc12 (centres undefined),i
COc1cccc(OCC(=O)N2CCN(Cc3nc(-c4ccc(F)cc4)cs3)CC2)c1,i
C=Cc1cccc2c1OC1(C)NC(=S)NC2C1C(=O)OCC (centres undefined),i
CN(C)C(=O)Oc1ccc2c(=O)c(Oc3ccccc3Br)c(C(F)(F)F)oc2c1,i
COc1ccc(CNC(=O)c2c(O)c3sccc3n(Cc3ccccc3)c2=O)cc1,i
CC1C/C=C/C(O)C(O)CC/C=C/c2cc(O)cc(O)c2C(=O)O1 (centres undefined),i
CCN1CCN(C(CN)c2ccc(OC)cc2)CC1 (centres undefined),i
C=CC(C)(C)c1cc2cc3c(cc2oc1=O)O[C@H](C(C)(C)O)C3,i
Cc1c(OC(=O)N(C)C)ccc2c1O/C(=C\c1ccc3c(c1)OCO3)C2=O,i
CC1(C)Cc2cccc(OCC(=O)N3CCN(CCn4cccn4)CC3)c2O1,i
COC1C(O)C(C)OC(OC2C(CO)O[C@@H](O[C@@H]3CC4CCC5C(CC[C@]6(C)[C@@H](C7=CC(=O)OC7)CC[C@]56O)[C@@]4(C)[C@H](OC(C)=O)C3)C(O)C2O)C1O (some centres undefined),i
CN=C1CN(O)C(c2ccccc2)=c2cc(Cl)ccc2=N1,i
COc1ccc(CC(=O)N2CCN(Cc3nc4ccccc4[nH]3)CC2)cc1,i
C#CCN(C)[C@H](C)Cc1ccccc1,i
CN1C(=O)[C@]23CC4C(C)(C)[C@@]5(C[C@@]41CN2CC[C@@]3(C)O)C(=O)Nc1c5ccc2c1OC=CC(C)(C)O2 (some centres undefined),i
CCCCC/C=C\C/C=C\C/C=C\C/C=C\CCCC(=O)NCc1ccoc1,i
CN1CC[C@]2(c3cccc(O)c3)Cc3nc4ccccc4cc3C[C@H]2C1,i
COc1cccc2cc(C(=O)N3CC4CC(C3)c3cccc(=O)n3C4)oc12 (centres undefined),i
CCN(CC)CC#CCNC(=O)c1ccc(C#N)cc1,i
CC(=O)Nc1ccc(OC(=O)N(C)c2ccc(C)cc2)cc1,i
CCCCC/C=C\C/C=C\C/C=C\C/C=C\CCCC(=O)NCCO,i
COc1ccc(-c2csc(CN3CCN(C(=O)COc4ccccc4)CC3)n2)cc1,i
CCC1C2CC3C4N(C)c5ccccc5C45CC(C2C5O)N3C1O (centres undefined),i
CCCCCCCCCOc1ccc2[nH]cc(CCN)c2c1,i
CN(C)C(=O)Oc1ccc2c(=O)c(-c3ccc(Cl)cc3)coc2c1,i
# Next compounds follow:
SMILES,GIRK2 activ
Cc1csc(C(=O)NCC#CCN2CCCC2)c1,i
Oc1c(Br)cc(Br)cc1-c1cc(Br)cc(Br)c1O,i
O=C(NCc1ccc2c(c1)OCO2)c1c(O)c2sccc2n(Cc2ccccc2)c1=O,i
CC(NC(C)(C)C)C(=O)c1cccc(Cl)c1 (centres undefined),i
C=C(C)C1CCC(C)=C[C@H]1c1c(C)cc(O)cc1O (some centres undefined),i
O=C(Cc1cccs1)N1CCN(CC(F)(F)F)CC1,i
O=C(COc1ccccc1)N(CCN1CCOCC1)c1nc2ccc(Cl)cc2s1,i
CC(C)N(CC#CCNC(=O)C1CCCC1)C(C)C,i
O=C(Cc1ccccc1Cl)NCC#CCN1CCCC1,i
CC(C)Sc1ccc(CC(=O)N2CCN(Cc3nc4ccccc4n3C)CC2)cc1,i
CCCCC/C=C\C/C=C\C/C=C\C/C=C\CCCC(=O)NOCCO,i
O=C(C1CC(=O)N(c2ccccc2)C1)N1CC2CC(C1)c1cccc(=O)n1C2 (centres undefined),i
CN[C@H]1C[C@@H]2O[C@](C)(C1OC)n1c3ccccc3c3c4c(c5c6ccccc6n2c5c31)C(=O)NC4 (some centres undefined),i
COc1cc(/C=C\c2ccc(OC)c(O)c2)cc(OC)c1,i
O=C(NCC#CCN1CCCCC1)c1cccc(Br)c1,i
COc1ccc(OCC(=O)N2CCN(CC(=O)c3ccco3)CC2)cc1,i
CCCCC/C=C\C/C=C\C/C=C\C/C=C\CCCC(=O)N(C)C,i
CN(C)CC#CCNC(=O)C(C)(C)C,i
CCCCC/C=C\C/C=C\C/C=C\C/C=C\CCCC(=O)NC(CO)CO,i
CO[C@@]12c3c(C)cc(O)c4c(=O)occ(c34)C(=O)[C@@H]1C13COC(=O)c4c(O)cc(C)c(c41)C(=O)[C@H]2[C@H]3OC(C)=O,i
CC1CN(CC(=O)c2ccc(O)cc2O)CC(C)O1 (centres undefined),i
CN(C)C(=O)Oc1ccc2c(=O)c(-c3ccc(Cl)cc3)c(C(F)(F)F)oc2c1,i
O=C(COc1ccc(Cl)cc1Cl)N1CCN(Cc2nc(-c3ccco3)cs2)CC1,i
CCC1N=C(c2ccccc2)c2cc(Br)ccc2NC1=O (centres undefined),i
O=C(Cc1noc2ccccc12)N1CC2CC(C1)c1cccc(=O)n1C2 (centres undefined),i
CN(C)CC#CCNC(=O)c1cc(Cl)ccc1Cl,i
O=C(NCC#CCN1CCCCC1)c1ccc[nH]c1=O,i
CCOCC(=O)NCC#CCN(CC)CC,i
Cc1c(C(=O)N2CC3CC(C2)c2cccc(=O)n2C3)cnn1-c1ccccc1 (centres undefined),i
CCCCC/C=C\C/C=C\C/C=C\C/C=C\CCCC(=O)Nc1ccc(O)cc1,i
CCN(C(C)=O)c1cccc(-c2ccnc3c(C#N)cnn23)c1,i
c1ccc(Cn2ccnc2)cc1,i
COc1cccc(Oc2c(C)oc3cc(OC(=O)N(C)C)ccc3c2=O)c1,i
OC[C@H]1O[C@@H](n2cnc3cc(Cl)c(Cl)cc32)[C@H](O)[C@@H]1O,i
COc1ccccc1OCC(=O)N1CCN(Cc2c(C)noc2C)CC1,i
O=C(Nc1cccc(Br)c1)c1cc2cccnc2n(Cc2ccc(F)cc2)c1=O,i
CC1=C(O)C(=O)C=C2C1=CC=C1[C@@]2(C)CC[C@@]2(C)[C@@H]3C[C@](C)(C(=O)O)CC[C@]3(C)CC[C@]12C,i
CN(C)C(=O)Oc1ccc2c(=O)c(-c3ccccc3)coc2c1,i
C[N+]1(C)CCN(c2ccccc2)CC1,i
O=C(NCCN1CCC2(CC1)C(=O)NCN2c1ccccc1)c1ccc2ccccc2c1,i
N#CC(C#N)=Cc1cc(O)c(O)c(O)c1,i
Cc1cc(SCc2sc(-c3ccc(C(F)(F)F)c(F)c3)nc2C)ccc1OCC(=O)O,i
CN(CC#CCNC(=O)C1CC1)Cc1ccccc1,i
Cc1noc(C)c1CC(=O)N1CCN(C2CCCCC2)CC1,i
CCCC(=O)N[C@H]1CCOC1=O,i

# In the list so far, seven contain a furan ring, fused or not.
SMILES,GIRK2 activ
Cc1cc(C(=O)N2CC3CC(C2)c2cccc(=O)n2C3)c(C)o1 (centres undefined),i
CC(C)N(CC#CCNC(=O)c1ccco1)C(C)C,i
CCOC(=O)c1c(-c2ccc(OC)cc2)oc2ccc(OC(=O)N(C)C)cc12,i
CCCCC/C=C\C/C=C\C/C=C\C/C=C\CCCC(=O)NCc1ccoc1,i
COc1cccc2cc(C(=O)N3CC4CC(C3)c3cccc(=O)n3C4)oc12 (centres undefined),i
COc1ccc(OCC(=O)N2CCN(CC(=O)c3ccco3)CC2)cc1,i
O=C(COc1ccc(Cl)cc1Cl)N1CCN(Cc2nc(-c3ccco3)cs2)CC1,i

# Continued.
SMILES,GIRK2 activ
O=C(Cn1cccn1)NCC#CCN1CCOCC1,i
Cc1ccccc1OCC(=O)NCC#CCN(C)C,i
CCOc1ccc(NC(=O)NCC#CCN(C)C)cc1,i
O=C(Oc1cccc2cccnc12)c1ccc(Cl)c(S(=O)(=O)N2CCCCCC2)c1,i
COc1ccc(OC)c(N2Cc3ccccc3C2=N)c1,i
O=C(Cc1ccc(F)cc1)N1CCN(Cc2nc(-c3ccc(F)cc3)cs2)CC1,i
CCCCC/C=C\C/C=C\C/C=C\C/C=C\CCCC(=O)N[C@H](C)COP(=O)(O)O,i
COc1cccc(Oc2c(C(F)(F)F)oc3cc(OC(=O)N(C)C)ccc3c2=O)c1,i
O=C(COc1ccccc1F)N1CCN(CC(O)C2CC2)CC1 (centres undefined),i

# Five of the compounds above, with tabs:
molecule	GIRK2 activ
O=C(Oc1cccc2cccnc12)c1ccc(Cl)c(S(=O)(=O)N2CCCCCC2)c1	i
COc1ccc(OC)c(N2Cc3ccccc3C2=N)c1	i
O=C(Cc1ccc(F)cc1)N1CCN(Cc2nc(-c3ccc(F)cc3)cs2)CC1	i
CCCCC/C=C\C/C=C\C/C=C\C/C=C\CCCC(=O)N[C@H](C)COP(=O)(O)O	i
COc1cccc(Oc2c(C(F)(F)F)oc3cc(OC(=O)N(C)C)ccc3c2=O)c1	i

# This is a subset; the hit share may differ from the screen's.
